# PABP FP inh: blocks human PABP binding to poly(A) RNA | actives 1% (n = 290,000) | fluorescence polarization | inhibition, % at 35 µM;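 active means 50% or more with normal probe brightness, or confirmed in later tests; inconclusive means above 50% with abnormal brightness, or retests that disagree; inactive means below 50% or failed in later tests; about a fifth of its hits are not listed in these tables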;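 further: calls also rest on retests at 20 µM and on dose response follow-up; controls were probe without protein and protein plus probe with vehicle; some compounds called inactive have numbers as strong as hits; many hits fall short of the cut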
# Target sequence (P11940 whole entry, looked up): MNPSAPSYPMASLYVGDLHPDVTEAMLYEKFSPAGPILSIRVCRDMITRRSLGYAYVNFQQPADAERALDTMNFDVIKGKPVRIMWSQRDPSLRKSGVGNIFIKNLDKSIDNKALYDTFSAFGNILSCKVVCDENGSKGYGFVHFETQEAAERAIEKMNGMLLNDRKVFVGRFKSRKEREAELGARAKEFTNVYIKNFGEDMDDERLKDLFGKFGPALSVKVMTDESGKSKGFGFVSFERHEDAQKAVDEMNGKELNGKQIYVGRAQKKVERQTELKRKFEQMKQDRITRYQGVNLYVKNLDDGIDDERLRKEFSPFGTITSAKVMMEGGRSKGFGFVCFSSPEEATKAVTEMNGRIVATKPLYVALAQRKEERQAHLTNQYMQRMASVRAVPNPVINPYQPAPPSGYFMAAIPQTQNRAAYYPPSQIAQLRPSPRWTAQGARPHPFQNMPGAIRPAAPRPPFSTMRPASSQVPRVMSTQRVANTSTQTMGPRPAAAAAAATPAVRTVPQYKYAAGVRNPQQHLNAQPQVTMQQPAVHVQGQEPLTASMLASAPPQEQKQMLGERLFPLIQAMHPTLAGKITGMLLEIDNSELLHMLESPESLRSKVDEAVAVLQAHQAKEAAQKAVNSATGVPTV
# Rce1 inhib: blocks yeast Ras-converting enzyme; Q03530; yeast membranes, quenched prenylated peptide cleavage fluorescence; calls only; actives 0.27% (n = 290,000); AID 2563;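 active means fall in fluorescence gain of 50% or more versus controls, with final raw signal at or below 3038400; inconclusive means same 50% fall but final raw signal above 3038400; inactive means fall in fluorescence gain under 50%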;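 further: plate controls were neutral control wells for no effect and wells lacking membranes for full effect; tested at 10 µM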
# Target sequence (Q03530 whole entry, looked up): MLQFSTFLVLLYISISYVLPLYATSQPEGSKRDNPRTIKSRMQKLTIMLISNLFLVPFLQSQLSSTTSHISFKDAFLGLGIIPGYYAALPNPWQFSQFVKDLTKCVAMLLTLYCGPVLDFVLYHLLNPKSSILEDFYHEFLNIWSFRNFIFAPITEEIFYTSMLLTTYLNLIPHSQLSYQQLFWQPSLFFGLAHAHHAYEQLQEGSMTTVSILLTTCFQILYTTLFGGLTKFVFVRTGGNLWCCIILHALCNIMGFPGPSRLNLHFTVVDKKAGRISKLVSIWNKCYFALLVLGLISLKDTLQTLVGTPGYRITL
# eIF4H FP inh: inhibitors of RNA binding by human eIF4H. Q15056. eIF4H fluorescence polarization binding assay. inhibition, % at 35 µM. actives 0.94% (n = 290,000). AID 2012;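 active means 50% or more with normal probe brightness, or confirmed in later tests; inconclusive means above 50% with abnormal brightness, or retests that disagree; inactive means below 50% or failed in later tests; about a fifth of its hits are not listed in these tables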;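 further: calls also rest on retests at 20 µM and on dose response follow-up; 0% = protein and probe with vehicle and 100% = probe without protein; strong numbers were not always called active; many hits fall short of the cut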
# MT1-MMP act inh: inhibitors of human MT1-MMP activation | P50281 | HT1080 RFP-PRO-GFP cells, GFP/RFP ratio fluorescence, overnight; percent of plate control window, DMSO zero | GFP/RFP ratio change, % at 20 µM | actives 0.061% (n = 360,000);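 active means GFP/RFP ratio change of at least 30% with cell ATP level not reduced by more than half and red fluorescence within 50% of control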; further: strong numbers were not always called active
#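 Read-out: GFP/RFP fluorescence ratio; Test system: RFP-PRO-GFP reporter HT1080 cells; Compound dosing: single-point 20 µM compound, 1% DMSO; Times: overnight compound exposure at 37 °C.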
# HIV Env fusion: HIV envelope-mediated fusion inhibition; HeLa-JRFL Env/CEM21 cell fusion, luciferase; inhibition, % at 12.3 µM; actives 1.1% (n = 360,000); AID 651610;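 active means mean replicate inhibition score of at least 50 and every replicate individually at or above 50; inconclusive means only one of the two criteria met; inactive means mean below 50 and not all replicates reaching 50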;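 further: 0% = plate neutral controls and 100% = maraviroc near 300 nM; one replicate is shown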
# CSC inhib: cancer stem cell inhibition | cancer stem cell-like cells viability, luminescence | inhibition, % at 7.5 µM | actives 1.1% (n = 300,000) | AID 2717;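 active means mean at 75% or more and at least half the replicates too; inconclusive means mean and replicates disagree; tested in HMLE shEcad cells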;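 further: 0% = median of negative and 100% = median of positive control wells; the first replicate is given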
# Yeast UUG start: modulators of start codon recognition fidelity in yeast | S. cerevisiae UUG-firefly luciferase reporter, luminescence/redox ratio | activity score, % at 18.7 µM | actives 0.13% (n = 350,000) | AID 602363;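 active means replicate mean at a twofold rise or more, about +100% in these data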;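 further: firefly luciferase made from a UUG start codon reports start codon fidelity; reporter light over untreated wells divided by growth signal over untreated wells; some hits fall short of that in this replicate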
# eIF4H FP inh retest: second read-out of eIF4H FP inh, no call of its own (marks repeat the call); inhibition, %; compound at 20 µM; confirmation average;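 mean of two retest wells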
# PABP FP inh retest: recorded beside PABP FP inh, whose call it bears; inhibition, %; compound at 20 µM; confirmation repeats;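 mean of two retest wells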
# MT1-MMP act inh RFP: second read-out of MT1-MMP act inh, no call of its own (marks repeat the call); RFP signal change, %; measured here: RFP expression control read;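 0 = vehicle wells; hits needed this value within 50% of zero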
# Starred values were filed as active, the others as inactive; i = inactive; ? = inconclusive; . = not tested or not shown; [ ] = remark or other dose.
SMILES,PABP FP inh,Rce1 inhib,eIF4H FP inh,MT1-MMP act inh,MT1-MMP act inh RFP,HIV Env fusion,CSC inhib,Yeast UUG start,others
O=C1NC(=Nc2ccc(F)cc2)CS1,-3,i,0,-1,0,4,-4,.,
O=C(CCl)Nc1cccc(Oc2cnccn2)c1,9,i,-3,-4,-3,6,14,-9,
O=C(CN1C(=O)CCS(=O)(=O)c2ccccc21)NCc1ccccc1,11,i,9,3,9,.,-5,-11,
Cc1ccc(S(=O)(=O)NCC(=O)N(CC(=O)NCC2CCCO2)C2CCCC2)cc1 (configuration not stated),0,i,-2,-3,1,.,-4,-18,
COC(=O)C1=C(N)OC2=C(C(=O)CCC2)C1c1cccnc1 (configuration not stated),0,i,-3,2,-1,2,-9,-22,
CCOc1ccc(C(=O)Nc2nnc(C)s2)cc1OCC,0,i,-7,7,8,-71,3,4,
Cc1ccc(C(=O)N2CCCC(C(=O)Nc3cccc(-c4ccc(F)cc4)c3)C2)cn1 (configuration not stated),2,i,-8,3,-12,4,-8,-6,
CCOC(=O)N1CCN(c2c(NCCc3ccc(OCC)c(OCC)c3)c(=O)c2=O)CC1,0,i,0,-4,-6,.,5,-20,
CC1(C)Cc2nc(N3CCOCC3)c(C#N)cc2CO1,-6,i,-4,2,5,-76,-5,.,
CCN(CC)C(=O)COc1ccc2c(-c3ccc(OC)cc3)cc(=O)oc2c1,5,i,-3,2,-2,-6,-12,2,
Cc1cc(Cl)ccc1NC(=S)Nc1ccccn1,12,.,8,5,2,-43,.,.,
CCOC(=O)CN1C(=O)C(O)(CC(=O)c2ccco2)c2ccccc21 (configuration not stated),9,i,-3,-3,6,.,-12,-15,
COc1ccc(C(=O)NC(Cc2ccc(OC(=O)c3ccc(OC)cc3)cc2)C(=O)O)cc1 (configuration not stated),8,i,-8,2,6,2,0,.,
O=C(COC(=O)c1cc([N+](=O)[O-])ccc1N1CCOCC1)c1ccc(F)cc1,.,.,.,-5,3,-2,.,-5,
CCCCN(C(=O)c1ccc(S(=O)(=O)N2CCCCC2)cc1)C1CCS(=O)(=O)C1 (configuration not stated),.,i,.,0,2,-7,.,9,
CC1CCCN(C(=O)COC(=O)Cn2cnc3ccccc32)C1 (configuration not stated),.,.,.,2,5,-40,-10,-6,
Cc1cc(C)c2cc(CN(CCCN(C)C)C(=S)NCc3ccccc3)c(=O)[nH]c2c1,-7,i,1,2,1,9,24,.,
Cc1ccc(C(=O)NCc2ccc3c(c2)OCO3)c(C)c1,-2,i,4,1,1,7,-8,-14,
COc1ccc(C(=O)NCc2nnc(SCC(=O)Nc3nc4ccccc4s3)o2)cc1,11,i,3,8,5,-16,-3,-29,
O=S(=O)(CCc1nc2ccccc2s1)c1ccc2ccccc2c1,9,i,1,2,8,.,0,-11,
CC(=O)N1CCN(C(=O)CNC(=O)c2ccc(Br)o2)CC1,-7,i,-12,-2,1,-3,1,-7,
O=C(CN1C(=O)NC2(CCOc3ccccc32)C1=O)NCc1ccccc1 (configuration not stated),.,.,.,-1,5,-87,-10,-17,
COc1cccc2cc(C(=O)Oc3ccc(NC(C)=O)cc3)c(=O)oc12,5,i,-8,10,-1,3,-7,.,
CC1=Nc2ccccc2/C1=C/c1nc(-c2ccc(C)s2)oc1O,8,i,?,0,2,5,1,.,

# An excerpt from above in order of count of non-hydrogen atoms, highest first.
SMILES,PABP FP inh,Rce1 inhib,eIF4H FP inh,MT1-MMP act inh,MT1-MMP act inh RFP,HIV Env fusion,CSC inhib,Yeast UUG start,others
COc1ccc(C(=O)NC(Cc2ccc(OC(=O)c3ccc(OC)cc3)cc2)C(=O)O)cc1 (configuration not stated),8,i,-8,2,6,2,0,.,
Cc1cc(C)c2cc(CN(CCCN(C)C)C(=S)NCc3ccccc3)c(=O)[nH]c2c1,-7,i,1,2,1,9,24,.,
CCCCN(C(=O)c1ccc(S(=O)(=O)N2CCCCC2)cc1)C1CCS(=O)(=O)C1 (configuration not stated),.,i,.,0,2,-7,.,9,
O=C(COC(=O)c1cc([N+](=O)[O-])ccc1N1CCOCC1)c1ccc(F)cc1,.,.,.,-5,3,-2,.,-5,
O=C(CN1C(=O)NC2(CCOc3ccccc32)C1=O)NCc1ccccc1 (configuration not stated),.,.,.,-1,5,-87,-10,-17,
COc1cccc2cc(C(=O)Oc3ccc(NC(C)=O)cc3)c(=O)oc12,5,i,-8,10,-1,3,-7,.,
CCOC(=O)CN1C(=O)C(O)(CC(=O)c2ccco2)c2ccccc21 (configuration not stated),9,i,-3,-3,6,.,-12,-15,
O=S(=O)(CCc1nc2ccccc2s1)c1ccc2ccccc2c1,9,i,1,2,8,.,0,-11,
CC1=Nc2ccccc2/C1=C/c1nc(-c2ccc(C)s2)oc1O,8,i,?,0,2,5,1,.,
CC(=O)N1CCN(C(=O)CNC(=O)c2ccc(Br)o2)CC1,-7,i,-12,-2,1,-3,1,-7,
Cc1cc(Cl)ccc1NC(=S)Nc1ccccn1,12,.,8,5,2,-43,.,.,

# Other compounds
SMILES,PABP FP inh,Rce1 inhib,eIF4H FP inh,MT1-MMP act inh,MT1-MMP act inh RFP,HIV Env fusion,CSC inhib,Yeast UUG start,others
CCCCc1nc2cc(Cl)ccc2o1,5,i,-7,-5,2,9,.,-23,
COc1ccc(S(=O)(=O)N[C@@H]2C=C[C@@H](CC(=O)N3CCc4ccccc4C3)O[C@@H]2CO)cc1,.,.,.,-2,2,7[16.7 µM],.,3,
O=C(Cn1c(=O)c2sccc2n(Cc2cccc([N+](=O)[O-])c2)c1=O)NCCc1ccccc1,-3,i,-14,8,-4,.,-7,.,
COc1ccc(C(C2C(=O)CC(C)(C)CC2=O)C2C(=O)CC(C)(C)CC2=O)cc1,3,i,-8,2,0,-3,-5,.,
COc1ccccc1Nc1nc2ccccc2[nH]1,-4,i,-2,-4,1,.,-4,-20,
Cc1cc(C)c(C#N)c(SC2CCCCC2=O)n1 (configuration not stated),10,i,-3,-3,-3,.,16,0,
CCc1nnc(NC(=O)c2cc(-c3ccccn3)nc3ccccc23)s1,-4,i,-15,3,5,-3,-8,-18,
Cc1cccc(NC(=O)CSc2nc3ccc(NC(=O)CSc4nnnn4-c4ccccc4)cc3s2)c1C,-8,.,6,.,.,.,-3,.,
CCN(CC)c1ccc(NC(=O)Nc2ccccc2)cc1,9,i,5,5,3,-161,13,-31,
COc1ccc(OCC(=O)Nn2c(-c3ccc(OC)cc3)nc3ccccc3c2=O)cc1,4,i,-1,1,-1,5,-9,.,
CCOC(=O)c1c(C)[nH]c(C(=O)COC(=O)CCS(=O)(=O)c2ccc(C)cc2)c1C,0,i,-18,1,9,-27,0,.,
COC(OC)c1ccc(C#N)c(SCc2ccc(C)cc2)n1,7,.,-1,-2,-4,-5,7,.,
CC(=O)Nc1ccc(-c2cc(C(=O)O)c3ccc(C)cc3n2)cc1,5,.,6,2,4,-34,-1,.,
C=CCN1C(=O)NC(c2ccc(OC)cc2)(C(F)(F)F)S/C1=C(\C#N)c1nnc(N2CCOCC2)n1-c1ccccc1 (configuration not stated),34,i,7,-3,-5,.,10,.,
COc1ccc2c(c1)c(=O)oc1cc(OCC(=O)N3CCC(C)CC3)ccc12,36,i,79,-1,1,.,13,3,eIF4H FP inh retest=-11;PABP FP inh retest=7
COCCn1c(SCC(=O)c2ccccc2)nc2c(c1=O)SC(C)C2 (configuration not stated),1,.,-4,5,-4,17,-9,21,
COc1ccc(S(=O)(=O)N2CCOC2CNC(=O)C(=O)NCc2ccco2)cc1C (configuration not stated),-11,i,-5,-1,-2,1,-12,11,
O=C(NC1CC1)C1CCCN1S(=O)(=O)c1ccc2ccccc2c1 (configuration not stated),0,i,-2,7,2,-140,35,-15,
CC(=O)N1CCN(C(=O)c2ccc(Oc3ccccc3)cc2)CC1,-5,i,4,0,-7,-2,-6,2,
Cc1cc(Cl)ccc1OCC(=O)NCCCN1CCOCC1,0,i,-8,6,6,.,-7,.,
Cc1cc(N/N=C/c2ccc(O)cc2O)c2ccccc2n1,-9,i,-5,-1,0,-4,-2,-20,
CC1CCN(S(=O)(=O)c2cccc(C(=O)Oc3ccc([N+](=O)[O-])cc3)c2)CC1,26,i,-5,.,.,.,-9,.,
CCCCN1C(=O)NC(NS(=O)(=O)c2ccc(N)cc2)(C(F)(F)F)C1=O (configuration not stated),1,.,6,0,2,-102,1,-1,
O=C(Nc1ccccc1F)c1ccc(Br)o1,5,i,-2,4,-2,3,-17,-12,
Cc1ccc(NC(=O)COC(=O)Cn2c(C)csc2=O)c([N+](=O)[O-])c1,.,i,.,-8,0,-2,-9,-5,
Cc1cc2ccccc2n1CCNC(=O)c1cccs1,64*,i,42*,48,56,.,-1,-14,eIF4H FP inh retest=85*;PABP FP inh retest=80*
Cc1nn(Cc2nnc(SCC(=O)Nc3cccc(C(F)(F)F)c3)n2C)c(C)c1[N+](=O)[O-],2,i,9,-1,1,29,-1,12,
CCOC(=O)N1CCN(C(=O)CSCC(=O)Nc2nc(-c3cccs3)cs2)CC1,5,i,-3,-2,-7,26,3,0,
O=C(O)CSc1nc(C(F)(F)F)cc(=O)n1-c1ccccc1,5,i,14,0,6,-66,-21,-12,
C=CCc1cccc2cc(C(=O)O)c(=O)oc12,4,i,-3,1,-3,34,-15,-9,
Cc1cccc(NC(=O)CC2c3ccccc3Oc3ccccc32)c1,10,.,1,2,5,5,6,-17,
Cc1c(/C=N/O)sc2ccccc12,-1,i,5,-3,0,12,-6,-6,
NC(=O)NNC1=Nc2cccc3cccc1c23,4,i,?,-4,-3,-22,1,-8,
O=C(NCC(c1ccco1)N1CCCC1)c1sc2cc(F)ccc2c1Cl (configuration not stated),.,.,.,-2,-3,-23,19,-9,
CC(=O)N=c1ncn(CC(COC(C)=O)OC(C)=O)c2nc[nH]c12 (configuration not stated),-12,i,6,-4,3,-96,-6,-11,
Cc1ccc(C)c(N2N=C(C(=O)Nc3ccccc3N3CCCC3)CCC2=O)c1,-7,i,-17,-7,-1,22,12,-15,
CN(CCNC(=O)CCNC(=O)Cn1ccc2ccccc2c1=O)Cc1ccccc1,-3,i,-6,7,6,.,1,-12,
O=C(Nc1cccc(F)c1)NC1CCCCC1,4,i,8,-1,-1,-30,-5,-11,
C[n+]1cccc(/C=N/Nc2nc(Cl)c(C#N)c(Cl)c2Cl)c1,44,i,38,-94,1,2,-6,-20,
CC(C)(C)OC(=O)N1CCC[C@H]1C(=O)Nc1ccc(Br)cc1,0,i,-2,-4,-6,23,-9,-3,
Cc1ccc(SCCC(=O)OCC(=O)Nc2ccc(S(N)(=O)=O)cc2)cc1,11,i,14,-7,-3,-2,-8,-9,
CC(NC(=O)Nc1ccccc1Cl)c1ccc2c(c1)OCO2 (configuration not stated),-4,i,-10,4,-1,3,21,0,
COc1ccc(/C=C/C(=O)N[C@H](C(=O)O)C(C)C)cc1,-12,i,-1,-1,1,0,0,.,
COc1ccc(/C=C/C(=O)NCC(=O)N/N=C/c2cccs2)cc1,4,i,-2,-2,-1,4,-14,-14,
CC(=O)Nc1ccccc1OCc1nnc(-c2ccccc2Cl)o1,4,i,-4,6,-9,-13,-2,-16,
CC(NC(=O)C(=O)NN=C1CCCCCC1)c1ccccc1 (configuration not stated),8,i,0,-2,5,.,-14,-6,
